Vif TR-FRET: HIV-1 Vif–A3G interaction blockers – biochemical, TR-FRET, GST-Vif 1-94, biotin-A3G peptide, dose response retest, primary screen (AID 1117319) | one-dose inhibition, %; IC50 in µM for titrated hits | 260,000 compounds, 0.57% hits | TR-FRET GST-Vif / biotin-A3G peptide binding; higher % means a stronger effect; test concentration not given here; strong numbers were not always called active;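 active means above the screen mean plus three standard deviations and confirmed in dose response; inconclusive means results disagree or hit not tested in dose response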;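 further: Vif residues 1-94 fused to GST binding biotinylated APOBEC3G peptide 110-148; 0% = full assay without inhibitor and 100% = GST in place of GST-Vif; retest series ran down from 100 µM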
LANA-H2A inh: blocks KSHV LANA binding to histone H2A/H2B; cell-free LANA-H2A/H2B peptide, fluorescence polarization; 320,000 compounds, 0.6% hits; inhibition, % (no concentration beside the values); Q9QR71; in the data active means inhibition mostly above about 10%, no sharp cut-off; inactive means mostly below about 6.7%;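 further: stock transfer was 7.5 nL into about 10 µL; 0% = median of vehicle wells and 100% = median of positive control wells; one replicate is shown; the record names a cut of 25% in any replicate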
A1 inh: inhibitors of the anti-apoptotic protein A1, read as caspase activation; MEF A1-2A-BIM cells, Caspase-Glo 3/7 luminescence, 3 h; percent of clofoctol response, vehicle zero; caspase activation, % (concentration not given with the values); 330,000 compounds, 0.066% hits; AID 2462;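 active means over half of replicate activation scores above 10%, or exactly half above 10 with the replicate mean above 10; inconclusive means replicate mean below 10 yet half the replicates above 10; inactive means over half of replicates below 10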;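 further: wells of about 30 µL received 50 nL stock; many hits fall short of the cut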
HNF4A DNA FP: change in binding of human HNF4 alpha to DNA | P41235 | HNF4a-FITC DNA binding, fluorescence polarization, 1 h | activity change, % at 10 µM | 360,000 compounds, 0.3% hits | AID 1224865; in the data active means activity change above about 30%, passing the limit was not always enough;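 further: controls were the assay level and a saturating level of protein; the project sought stronger binding though the title names inhibitors; some compounds called inactive have numbers as strong as hits; positive values seem to mean higher polarization but the record does not say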
Target sequence (P41235 whole entry, looked up): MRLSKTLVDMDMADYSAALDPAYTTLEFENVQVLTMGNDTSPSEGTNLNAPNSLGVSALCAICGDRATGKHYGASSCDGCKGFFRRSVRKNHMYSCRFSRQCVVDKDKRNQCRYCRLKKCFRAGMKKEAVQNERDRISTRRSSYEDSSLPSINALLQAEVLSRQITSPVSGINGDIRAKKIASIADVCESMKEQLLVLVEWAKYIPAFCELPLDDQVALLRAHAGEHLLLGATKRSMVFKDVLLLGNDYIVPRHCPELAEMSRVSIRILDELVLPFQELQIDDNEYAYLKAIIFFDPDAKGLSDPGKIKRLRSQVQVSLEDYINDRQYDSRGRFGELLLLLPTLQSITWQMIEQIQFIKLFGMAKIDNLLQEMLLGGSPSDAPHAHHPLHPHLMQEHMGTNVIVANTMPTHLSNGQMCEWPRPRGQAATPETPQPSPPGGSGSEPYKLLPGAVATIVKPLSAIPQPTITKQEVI
Ecoli growth: E. coli growth inhibition; Escherichia coli growth, OD600, 23 h; stronger effect = lower value; OD600 absorbance (concentration not given with the values); 330,000 compounds, 0.21% hits; AID 1053175;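 active means OD600 absorbance below the run mean of sample wells minus 3.6 SD, in any replicate, cut at about 0.56 in these data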;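 further: stock transfer was 300 nL into about 60 µL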
Beta2AR agonist: activates human beta-2 adrenergic receptor causing internalization; Am2.2-beta2AR cells, FAP receptor internalization, flow cytometry; reference of the scale not given here; P07550; 340,000 compounds, 0.43% hits; response, % (no concentration beside the values);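 active means response above a set limit, near 3 SD of response in nonfluorescent compounds, cut at about 42% in these data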;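 further: stock transfer was 100 nL into about 11 µL; a reference agonist was the positive control; negative values mostly stem from fluorescent compounds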
Target sequence (P07550 whole entry, looked up): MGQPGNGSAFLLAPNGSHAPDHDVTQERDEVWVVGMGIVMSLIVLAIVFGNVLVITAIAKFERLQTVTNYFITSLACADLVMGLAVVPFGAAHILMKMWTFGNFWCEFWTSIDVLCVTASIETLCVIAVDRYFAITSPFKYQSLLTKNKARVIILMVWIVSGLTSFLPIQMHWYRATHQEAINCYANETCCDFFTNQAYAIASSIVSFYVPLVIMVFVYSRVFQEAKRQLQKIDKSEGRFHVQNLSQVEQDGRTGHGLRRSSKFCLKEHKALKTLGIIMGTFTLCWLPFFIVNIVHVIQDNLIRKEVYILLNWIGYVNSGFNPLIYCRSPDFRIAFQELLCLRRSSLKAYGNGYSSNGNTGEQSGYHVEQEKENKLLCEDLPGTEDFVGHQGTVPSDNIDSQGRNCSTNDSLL
UCH37 DUB inh: blocks the human deubiquitinase UCH37. purified proteasome/UCH37, Ub-AMC cleavage fluorescence. inhibition, % (test concentration not listed). AID 588478. 330,000 compounds, 0.33% hits;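 active means mean of two replicates above 20%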;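 further: 0% = compound-free wells with enzyme and 100% = wells lacking proteasome; stock transfer was 100 nL into about 20 µL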
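Material: human UCH37 enzyme supplied as purified proteasome complex / Amount: 0.15 nM proteasome as dispensed / Buffer or medium: pH 7.4 Tris-HCl (50 mM) with ovalbumin, ATP-MgCl2, DTT / Times: preincubation 30 min, reaction 25 min, room temperature / Technique: AMC fluorescence from Ub-AMC cleavage, excitation 355 nm, emission 460 nm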
An asterisk follows results filed as active; i = inactive; ? = inconclusive; / = no result given; & = joins results of further samples.

SMILES	Vif TR-FRET	LANA-H2A inh	A1 inh	HNF4A DNA FP	Ecoli growth	Beta2AR agonist	UCH37 DUB inh
COC(=O)[C@]1(CC(C)C)N[C@H](c2ccc(-c3ccccc3)cc2)[C@@H]2C(=O)N(C)C(=O)[C@@H]21	/	0.3	1.0	0.6	/	0	-1.5
CN(CC(=O)NCc1cccnc1)S(=O)(=O)c1ccccc1	?	2.8	-0.3	2.3	0.69	-7	2.1
Cc1c(Cl)cccc1-n1c(SCC(=O)N2CCC(C(=O)O)CC2)nc2ccccc2c1=O	/	-3.4	2.4	-0.2	0.69	0	2.1
COc1ccc(-c2cn[nH]c2C)cc1	-3%	-3.1	-0.1	4.8	0.66	-1	2.2
O=C(CO/N=C/c1ccc2c(c1)OCO2)Nc1cccc(Br)c1	-11%	-0.7	-0.1	-2.5	/	8	/
CC1(C)NC(=O)N(CC(O)COC2CCCCC2)C1=O (stereo not drawn)	0%	-0.4	-0.1	2.8	0.67	-3	-0.3
COc1ccc(/C=C(/C#N)C(=O)Nc2cccnc2)cc1OC	-11%	1.4	0.3	-1.7	0.7	-5	2.0
COc1ccc(N2C(=O)CSC23C(=O)Nc2ccccc23)cc1 (stereo not drawn)	6%	5.7	-0.3	1.9	0.69	6	4.0
O=C(COC(=O)c1ccc(Cl)cc1)NCC1CCCCC1	1%	-8.1	2.2	-0.7	0.68	3	0.5
Cc1[nH]c2ccccc2c1C(=O)CSc1nnc(C2CC2)o1	13%	-7.0	-1.2	2.5	/	-2	/
CCOc1ccc(NCc2cccn2-c2nnc(N3CCC(C(=O)NCCCN4C(C)CCCC4C)CC3)s2)cc1 (stereo not drawn)	/	-0.6	-1.0	2.2	0.69	7	5.3
COc1ccc(NC(=O)c2noc3c2CCC3)cc1	?	3.7	-7.0	-20	0.73	-1	-0.4
CC[C@]12c3[nH]c4ccccc4c3CCN1C(=O)C(CC(=O)NCCCOC)C[C@@H]2C(=O)N1CCN(C(=O)c2ccco2)CC1 (stereo partly drawn)	2%	-1.2	-1.0	3.8	0.69	-9	0.8
COc1ccccc1NS(=O)(=O)c1cccc(C(=O)NCc2ccccn2)c1	/	-3.3	0.4	0.3	0.69	-6	3.1
O=C(NC(=S)Nc1ccc(S(=O)(=O)N2CCOCC2)cc1)c1ccccc1[N+](=O)[O-]	18%	-0.6	-0.5	-6.1	0.7	3	0.7
O=C(NNC(=O)c1sccc1-n1cccc1)c1ccc(Cl)cc1	11%	2.1	0.8	-0.6	0.79	-3	-0.9
Cn1cc(Br)c(NC(=O)/C=C/C(=O)O)n1	-1%	-1.3	0.2	-3.1	0.63	0	3.9
O=C(O)CCCC(=O)N1N=C(c2ccco2)CC1c1ccco1 (stereo not drawn)	/	-2.6	-0.5	-5.6	0.69	0	2.8
CC(C)C1OC(c2cccc(NC(=O)c3cccs3)c2)OCC1(C)C (stereo not drawn)	-1%	-0.8	0.2	-3.1	0.7	-5	0.6
O=C(c1cccc(S(=O)(=O)NCc2ccccc2)c1)N1CCN(Cc2ccccc2)CC1	0%	1.7	-0.1	3.9	0.73	-12	0.2
O=C(CSc1nnc(-c2cnccn2)n1Cc1ccco1)c1ccc(Cl)c(Cl)c1	5%	2.0	1.2	-3.1	0.68	-3	0.1
Cc1ccc(CNC(=O)c2cc3c(C)nc4ccccc4c3o2)cc1	1%	-6.6	-0.7	7.0	0.77	7	4.5
C/C(=N\NC(=O)c1cc(O)ccc1O)c1cccc(NC(=O)c2ccc(Cl)cc2)c1	/	0.6	-2.0	-8.4	/	11	/
CC(C)CCc1noc(CN2CCN(c3ccc(Cl)cn3)CC2)n1	-5%	1.4	0.9	-0.6	0.71	-10	0.6
COc1ccc(N(C(=O)c2snc(C(N)=O)c2N)C(C(=O)NC2CCCC2)c2cccs2)cc1OC (stereo not drawn)	/	4.0	0.5	0.1	0.69	0	-8.3
SMILES	Vif TR-FRET	LANA-H2A inh	A1 inh	HNF4A DNA FP	Ecoli growth	Beta2AR agonist	UCH37 DUB inh
COc1cc(/C=C2/C(=N)N3C(c4ccccc4)=CSC3=NC2=O)ccc1OCC(=O)O	10%	1.0	-1.8	-6.7	0.71	6	14
Cc1c(C(=O)N2CCCCC2)c(S(=O)(=O)NCc2ccc(F)cc2)c(C)n1C	3%	-1.0	0.9	-1.8	0.69	0	1.3
CCOC(=O)C1=C(C)N=c2s/c(=C\c3ccc(OCC(=O)O)cc3)c(=O)n2C1c1ccccc1 (stereo not drawn)	/	0.5	1.2	0.3	/	7	/
O=C(O)c1cc(=O)[nH]c2c(Cl)cccc12	10%	-3.0	1.6	-2.0	0.66	2	-22
CCN(CC)c1ccc(/C=N/NC(=O)CN2CCCc3ccccc32)cc1	/	-1.2	-0.1	-3.5	/	16	/
Cc1ccc2nc(-c3ccc(NC(=O)CSc4nc(N)cc(=O)[nH]4)cc3)sc2c1	-16%	-5.7	-1.8	5.0	0.7	7	-84
COc1cc(C(=O)Nc2c(C)cc(C)cc2C)c(-n2cnnn2)cc1OC	4%	0.9	-0.6	-1.7	0.69	1	0.1
CN1CCC23c4ccccc4NC1C21CCN(C)C3Nc2ccccc21	/	4.3	-0.9	3.5	0.8	8	1.5
COc1ccc(C2C([N+](=O)[O-])=C(C)N(C)C(=O)N2C)cc1OC (stereo not drawn)	3%	0.6	-0.1	2.0	0.65	-2	7.8
CC(C)(C)NC(=O)NCc1cccnc1	15%	-0.2	0.6	2.6	0.64	-4	0.1
CCN(CC)CCCNC(=O)C1CCN(c2ncnc3c2sc2cccc(F)c23)CC1	-3%	-1.7	-0.2	2.1	0.71	11	-8.2
CC1CCCCN1C(=O)/C(=C\c1ccccc1)c1ccccc1 (stereo not drawn)	-4%	1.2	-0.5	1.0	0.73	-2	4.5
CCOC(=O)c1c(NC(C)=O)sc2c(OCC(O)CNC(C)(C)C)c(Br)ccc12 (stereo not drawn)	/	1.9	-0.4	2.2	0.69	13	-25
O=C(CSc1ccc2c(c1)OCCO2)NCCN1C(=O)CSC1=O	2%	1.6	0.5	-4.1	0.74	-6	3.9
O=C(O)c1ccc(CNC(=S)Nc2ccccc2)cc1	-1%	0.1	-0.1	1.8	0.73	-4	0.1
Cc1c(NC(=O)C(C)OC(=O)[C@@H](NC(=O)c2ccccc2)C(C)C)c(=O)n(-c2ccccc2)n1C (stereo partly drawn)	13%	-4.3	-1.2	-0.5	0.72	3	-1.8
CC(C)c1nnc(SCC(=O)N2CCc3ccccc32)n1C	2%	1.4	-0.8	0.7	0.7	-5	1.1
Cc1ccccc1CN1CCCC(C(=O)Nc2ccccc2Oc2cccnc2)C1 (stereo not drawn)	2%	-1.0	0.4	-1.0	0.73	-21	-0.2
COc1ccc(OCc2nnc(SCC(=O)O)n2N)cc1	-1%	0.0	-0.5	3.9	0.67	4	5.7
O=C(Nc1cc(S(=O)(=O)N2CCCC2)ccc1Cl)c1ccncc1	/	-1.4	1.1	-2.6	/	5	/
O=C(OCc1ccccc1)C1=[N+]([O-])OC(C(=O)OCc2ccccc2)C1c1c[nH]c2ccccc12 (stereo not drawn)	2%&6%	3.3	0.6	2.4	0.73	14	0.8
CCc1cc(=O)oc2c(C)c(OCC(=O)N3CCCc4ccccc43)ccc12	14%	3.8	1.1	-1.3	0.67	14	0.4
O=C(CCc1ccccc1)NCc1ccccn1	2%	0.1	-0.2	0.9	0.72	-11	0.1
CC(=O)Nc1ccc(S(=O)(=O)N(C)CC(=O)OCC(=O)N2CC(C)OC(C)C2)cc1 (stereo not drawn)	5%	2.7	0.3	-0.6	0.58	-5	1.2
O=C(CSc1nnc(CNC(=O)c2ccco2)o1)Nc1ccc(OC(F)(F)F)cc1	/	0.4	0.1	-1.0	0.68	-5	5.2

Ordered by the number under Vif TR-FRET (descending): 3 from the list above.
molecule	Vif TR-FRET
COc1ccc(N2C(=O)CSC23C(=O)Nc2ccccc23)cc1 (stereo not drawn)	6%
CC(C)CCc1noc(CN2CCN(c3ccc(Cl)cn3)CC2)n1	-5%
O=C(CO/N=C/c1ccc2c(c1)OCO2)Nc1cccc(Br)c1	-11%

More compounds follow:
SMILES	Vif TR-FRET	LANA-H2A inh	A1 inh	HNF4A DNA FP	Ecoli growth	Beta2AR agonist	UCH37 DUB inh
Cn1nnc2cc(C(=O)NC3CCCCC3)ccc21	15%	0.9	-1.2	-7.2	0.73	-7	1.8
CC(C)CCNCC(=O)NC(c1ccccc1)c1ccccc1	7%	-2.3	-1.1	1.0	0.69	-1	1.5
CC[C@]12c3[nH]c4cc(CCC(=O)N(C)C)ccc4c3CCN1C(=O)[C@@H](CC(=O)NCCc1ccccn1)C[C@@H]2C(=O)N1CCN(C(=O)c2ccco2)CC1	4%	/	/	-0.5	0.69	-7	2.8
COc1cc(CC(=O)OCC(=O)NC2CCCCCC2)cc(OC)c1OC	-3%	-6.4	0.4	-3.3	0.65	-3	0.1
CCOC(=O)N1CCN(C(=O)CSc2nnc(COc3ccc(Cl)cc3)o2)CC1	3%&-2%	2.3	-0.5	-2.8	0.73	0	-0.1
O=C(Cc1ccc(Cl)cc1)NNC(=S)NC(=O)c1cccs1	1%	-7.0	0.0	-0.1	0.64	0	-2.0
Cc1ccc(NC(=O)CNC(=O)c2ccc(Br)o2)nc1	/	0.3	1.5	0.5	/	5	/
CC(C)c1ccccc1NC(=O)COC(=O)c1cccnc1	/	0.4	?	1.8	0.67	0	5.1
CC(=O)N/C(=C\c1ccccc1)C(=O)OCC(=O)N(CC(C)C)c1c(N)n(Cc2ccccc2)c(=O)[nH]c1=O	4%	-1.5	0.5	-2.2	0.55	-11	1.5
COC(=O)C1CCCN1C(=O)C12CC3CC(CC(C3)C1)C2 (stereo not drawn)	3%	i	0.3	-1.3	0.65	9	-0.4
CCCN(CCC)C(=O)c1ccc2nc(-c3ccc(OC)c(OC)c3)c(-c3ccc(OC)c(OC)c3)nc2c1	-3%	-1.5	-0.5	1.1	0.63	43*	-19
C=CCNC(=O)c1c(C(F)(F)F)nn(C)c1Cl	-4%	0.9	-0.1	-0.7	0.67	0	2.6
CC(=O)N1CCN=C1SCc1c(F)cccc1Cl	-2%	-1.0	0.8	-0.2	0.73	-21	7.5
COc1cc(CCC(=O)Nc2ncc(C)s2)cc(OC)c1OC	/	3.8	0.3	-1.2	0.7	-9	4.7
COc1ccc(-c2nc(N/N=C(\C)c3ccc(O)cc3)c3ccccc3n2)cc1	-8%	-1.8	-0.9	-2.6	/	27	/
CCOC(=O)CNC(=S)n1ncnc1N	/	-0.9	0.7	0.5	0.65	3	0.9
COc1ccccc1S(=O)(=O)NCc1ccc(C(=O)NC(C)c2ccccn2)cc1 (stereo not drawn)	-7%	/	-0.3	1.3	0.64	-2	0.7
CN(C)c1ccc(-c2nnc(SCC3CCCO3)n2C)cc1 (stereo not drawn)	10%	4.0	0.2	0.7	0.67	-2	5.1
COc1cc(/C=C(\C#N)c2ccccn2)ccc1OCc1ccc(Cl)cc1	/	-2.0	-0.3	-4.7	0.72	-7	-39
CC(=O)NC1=NN(C(C)=O)C(C)(c2ccc(Br)cc2)S1 (stereo not drawn)	?	4.1	-0.2	0.7	0.69	0	5.1
COC(=O)c1[nH]c2cccc(Cl)c2c1NC(=O)CN1CCN(CCO)CC1	-1%	0.7	0.2	-2.7	0.68	-4	-3.6
COc1ccc(NC(=O)CSc2nnc(C)c3ccccc23)cc1	-8%	1.3	-1.0	15	0.7	6	14
Cc1onc(-c2ccccc2)c1C(=O)Nc1nnc(COc2ccc(Cl)cc2)s1	9%	0.4	0.4	-1.8	0.66	9	2.7

From PubChem
